A1 apoptosis 2: compounds inhibiting A1, read as caspase activation | MEF A1-2A-BIM cells, caspase-Glo luminescence, 3 h; percent of clofoctol response, DMSO zero | 24,000 tested, under 10 active | AID 2465 | caspase activation, % (concentration not given with the values); in the data active = caspase activation above about 5.9%;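 also: wells of about 30 µL received 50 nL stock; the first replicate is given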
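system = A1-2A-BIM-expressing MEF cells | quantity = 2500 MEF cells/well | dosing = 50 nL compound per well, pinned | schedule = overnight cell settling, then 3 h compound exposure, 37 °C | signal = luminescence from DEVD-luciferin Caspase-Glo reagent, 1:1 in 50 mM HEPES, 1 h RT | read-out = Caspase-3/7 activation, seen as rise in luminescence signal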
An asterisk follows results filed as active. The list is partial. The share of hits here may be higher or lower than overall.

SMILES | A1 apoptosis 2
C[C@H](CO)N1C[C@H](C)[C@@H](CN(C)S(=O)(=O)c2cn(C)cn2)OCCCC[C@H](C)Oc2ccc(N(C)C)cc2C1=O | -1.0
C[C@H]1CN([C@@H](C)CO)C(=O)Cc2cc(NC(=O)Cn3cnnn3)ccc2O[C@H]1CN(C)Cc1ccc(Oc2ccccc2)cc1 | -0.1
COc1ccc(S(=O)(=O)N(C)C[C@@H]2Oc3ccc(NC(=O)NC(C)C)cc3CC(=O)N([C@@H](C)CO)C[C@@H]2C)cc1 | 1.1
C[C@H](CO)N1C[C@H](C)[C@@H](CN(C)S(=O)(=O)c2cn(C)cn2)Oc2c(NS(=O)(=O)c3ccc(Cl)cc3)cccc2C1=O | -0.3
C[C@H](CO)N1C[C@H](C)[C@@H](CN(C)S(=O)(=O)c2ccc(F)cc2)Oc2ccc(N(C)C)cc2C1=O | -0.4
C[C@H]1CN([C@@H](C)CO)C(=O)Cc2cc(N(C)C)ccc2O[C@@H]1CN(C)Cc1ccncc1 | -0.9
C[C@H]1CN([C@@H](C)CO)C(=O)c2cc(NS(=O)(=O)c3cccs3)ccc2O[C@H]1CN(C)Cc1ccccc1 | 0.4
COc1ccc(S(=O)(=O)N(C)C[C@@H]2Oc3c(NC(=O)c4cc(C)nn4C)cccc3C(=O)N([C@H](C)CO)C[C@H]2C)cc1 | 0.0
O=C(N/N=C/c1ccccc1OCCO)c1ccccc1O | -0.2
C[C@H](CO)N1C[C@H](C)[C@@H](CN(C)S(=O)(=O)c2cn(C)cn2)Oc2c(NS(=O)(=O)c3ccc(F)cc3)cccc2C1=O | 0.4
C[C@@H]1CN([C@@H](C)CO)C(=O)Cc2cc(NC(=O)Nc3cccc4ccccc34)ccc2O[C@@H]1CN(C)C(=O)Nc1ccc2c(c1)OCO2 | 1.6
CNC[C@@H]1OCCCC[C@@H](C)Oc2ccc(NS(=O)(=O)c3c(C)noc3C)cc2C(=O)N([C@H](C)CO)C[C@@H]1C | -1.2
C[C@@H]1CCCCO[C@H](CN(C)C(=O)CCCN(C)C)[C@H](C)CN([C@@H](C)CO)C(=O)c2cc(N(C)C)ccc2O1 | 0.5
C[C@H]1CN([C@@H](C)CO)C(=O)c2cccc(NS(=O)(=O)c3ccc(Cl)cc3)c2O[C@H]1CN(C)C(=O)Nc1ccc2c(c1)OCO2 | 0.9
C[C@H](CO)N1C[C@H](C)[C@@H](CN(C)Cc2ccc(Oc3ccccc3)cc2)Oc2c(NC(=O)Nc3ccccc3)cccc2C1=O | -0.9
C[C@@H]1CCCCO[C@H](CN(C)Cc2ccccc2)[C@@H](C)CN([C@@H](C)CO)C(=O)c2cc(NS(C)(=O)=O)ccc2O1 | 2.0

Five entries from above in another layout.
mol,A1 apoptosis 2
C[C@H]1CN([C@@H](C)CO)C(=O)c2cc(NS(=O)(=O)c3cccs3)ccc2O[C@H]1CN(C)Cc1ccccc1,0.4
COc1ccc(S(=O)(=O)N(C)C[C@@H]2Oc3c(NC(=O)c4cc(C)nn4C)cccc3C(=O)N([C@H](C)CO)C[C@H]2C)cc1,0.0
O=C(N/N=C/c1ccccc1OCCO)c1ccccc1O,-0.2
C[C@H](CO)N1C[C@H](C)[C@@H](CN(C)S(=O)(=O)c2cn(C)cn2)Oc2c(NS(=O)(=O)c3ccc(F)cc3)cccc2C1=O,0.4
C[C@@H]1CN([C@@H](C)CO)C(=O)Cc2cc(NC(=O)Nc3cccc4ccccc34)ccc2O[C@@H]1CN(C)C(=O)Nc1ccc2c(c1)OCO2,1.6

Two entries from above, tab-delimited.
smiles	A1 apoptosis 2
C[C@H]1CN([C@@H](C)CO)C(=O)c2cc(NS(=O)(=O)c3cccs3)ccc2O[C@H]1CN(C)Cc1ccccc1	0.4
COc1ccc(S(=O)(=O)N(C)C[C@@H]2Oc3c(NC(=O)c4cc(C)nn4C)cccc3C(=O)N([C@H](C)CO)C[C@H]2C)cc1	0.0

Source: PubChem BioAssay
